CBX7 AlphaScr: blocks human CBX7 binding to H3K27me3 peptide; AlphaScreen His6-CBX7 / biotin-H3K27me3 peptide binding; stronger effect = lower value; hit rate 1.1% among 66,000; normalised signal (fraction of DMSO) (no concentration beside the values); O95931; in the data active = normalised signal below about 0.5;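 also: 100 nL library stock added to about 20 µL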
Target sequence (O95931 whole entry, looked up): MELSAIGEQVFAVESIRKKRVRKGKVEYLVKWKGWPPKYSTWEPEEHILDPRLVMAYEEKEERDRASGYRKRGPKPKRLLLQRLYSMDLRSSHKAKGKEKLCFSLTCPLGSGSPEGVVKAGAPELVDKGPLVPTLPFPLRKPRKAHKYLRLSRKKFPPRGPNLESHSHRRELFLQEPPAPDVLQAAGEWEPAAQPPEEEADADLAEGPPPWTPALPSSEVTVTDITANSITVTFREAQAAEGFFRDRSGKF
CBX7 AlphaScr z-score: further read-out of CBX7 AlphaScr, marked with its call; z-score; measured here: z-score of CBX7 signal; some inactives read as strong as hits; reference of the scale not given here;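 same signal on another scale; lower means less binding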
* hit, by the source's call; & = joins results of further samples. A portion of the library; count on the stated rates, not on these rows.

mol	CBX7 AlphaScr	CBX7 AlphaScr z-score
O=C1CN(C(=O)c2cccs2)C(c2ccccc2)c2cc(Br)ccc2N1 (configuration not stated)	0.91	-1.9
CCOC(=O)CN1CC23C=CC(O2)C(C(=O)NCc2ccc(F)cc2)C3C1=O (configuration not stated)	1	1.4
Cc1ccccc1Nc1nc(-c2ccccc2)nc2ccccc12	1.1	2.5
O=C(NCc1ccc(F)cc1)C1CC(=O)N(CCc2ccccc2)C1 (configuration not stated)	1	-0.12
CCCCNC(=O)CCN1N=C(c2ccc(C)cc2)CCC1=O	1	0.29
COc1ccc(-n2c3c(cc(C(=O)NC4CC(C)(C)NC(C)(C)C4)c2=O)C(=O)CC(C)(C)C3)cc1	0.79	-2.3
COc1ccc(Cn2c(=O)c3cccnc3n(CC(=O)Nc3c(C)cccc3C)c2=O)cc1	0.94	-1.1
CCN(CC)S(=O)(=O)c1ccc2[nH]cc(C(=O)NCCc3ccccc3)c(=O)c2c1	1.1	1.6
CCOc1ccc(NC(=O)CCCc2cc(-c3ccc(OC)cc3)on2)cc1	0.96	-0.68
Cc1ccccc1NC(=O)C1(N(Cc2ccccc2)C(=O)Cc2nc(N)n[nH]2)CCCCC1	0.66	-6.2
CCOCCCNC(=O)CN1C(=O)CSc2ccc(S(=O)(=O)N3CCC(C)CC3)cc21	1.1	0.86
COc1ccc(C2CC(=O)C3=C(C2)Nc2ccccc2NC3c2ccc(C)cc2)cc1 (configuration not stated)	0.86	-2.1
Cn1c(C(=O)N2CCc3ccccc3C2)cc2sccc21	0.93	-2.9
O=C(Nc1ccccc1)c1cc(S(=O)(=O)NCCc2c[nH]c3ccccc23)ccc1Cl	0.71	-0.29
Cc1c(C(=O)Nc2ccccc2F)sc2ncn(CC(=O)N3CCCCC3)c(=O)c12	1	0.23
O=C(CCCCCn1c(=O)[nH]c2ccsc2c1=O)Nc1cccc(C(F)(F)F)c1	0.94	-1.4
Cc1ccc(-c2nn(CCC(N)=O)c(=O)c3ccccc23)cc1	0.97	-0.93
CCOC(CNC(=O)c1cccc2c1C(=O)N(c1ccc(OC)cc1)C2)OCC	1.1	2.7
CCn1c(C(=O)N2CCC(C(=O)NCCc3ccc(OC)c(OC)c3)CC2)cc2sccc21	0.95	-0.21
O=C(NCCCc1ccccc1)C1CCCN(c2nc3ccccc3[nH]2)C1 (configuration not stated)	1	0.55
O=C(Nc1cnn(Cc2ccc(F)cc2)c1)c1cc(C2CC2)on1	0.96	-1.3
CCCCN(CC)C(=O)C1CCN(S(=O)(=O)c2c(C)noc2/C=C/c2cccs2)CC1	0.86	-0.3
O=C(CSc1nnc(Cc2cc(=O)[nH]c(=O)[nH]2)n1-c1ccccc1)N1CCCC1	1.1	2.2
Cc1nn2c(C(F)(F)F)c3c(nc2c1-c1ccc(Cl)cc1)CCCC3	0.97	-0.55
Cc1ccccc1Nc1c(-c2cccc(N(C)C)c2)nc2ccc(Br)cn12	0.93	-1.8
Cc1cccc(CN(C(=O)Nc2ccccc2)c2ccccn2)c1	1.1	3.8
CCOc1ccc(OCC)c(NC(=O)c2cc3sccc3n2Cc2ccc(F)cc2)c1	1.1	1.6
Cc1ccc(S(=O)(=O)c2nc(C)oc2N2CCOCC2)cc1	1.1	2.3
CCOC(=O)c1cnc2c(C)cc(C)cc2c1Nc1ccc(C)cc1	1.3	2.9
CCOc1ccc(N2C(=O)C(N3C(=O)c4ccccc4C3=O)C2c2cccc(OC)c2)cc1 (configuration not stated)	0.95	-1.1
CCCCOc1ccc(C(=O)Nc2c(C(=O)c3ccc(Br)cc3)oc3ccccc23)cc1	1.1	0.8
CC1CCN(C(=O)c2ccc(C#Cc3ccccc3)cc2)CC1	1.1&0.88	3.7&-1.8
O=C(Nc1ccc(-c2nc3ncccc3o2)cc1)c1ccc(Cl)c(Cl)c1	1.1	1.4
CCOc1ccc(-n2ccnc2SCC(=O)Nc2ccc(C)c(Cl)c2)cc1	0.7	-0.4
CCOc1ccc(NC(=O)C2CC2(c2cccc(C)c2)c2cccc(C)c2)cc1 (configuration not stated)	1	1.5
CCOc1ccc(Nc2cc(C(=O)NCCCN(CC)CC)c3ccccc3n2)cc1	0.91	-2.5
COC(=O)CN1C(=O)CCSc2ccccc21	0.93	-0.73
CCCN1CCN(CCCNC(=O)CN2N=C(c3ccc(Cl)cc3)CCC2=O)CC1	1	0.54
COc1cccc(-c2cc(C(=O)Nc3ccc(C#N)cc3)no2)c1	1	0.98
Cc1ccc(-c2nc(NC(=O)CSc3nc(C)cc(C)c3C#N)ns2)cc1	1.2	2.4
COc1ccccc1Nc1ncc(C(=O)NCc2cccnc2)c2ccccc12	1.4	2.9
CCCCn1c(C2CC(=O)N(c3ccccc3F)C2)nc2ccccc21 (configuration not stated)	1.1	0.69
COc1ccc(-c2cnc(-c3c(O)c(C)nc4ccccc34)o2)cc1	0.9	-0.43
O=C(Cn1cc(S(=O)(=O)c2ccccc2)c(=O)c2cc(F)ccc21)Nc1ccccc1	1	0.44
COc1ccc(-c2cc(C(=O)Nc3cccc(Cl)c3)c3ccccc3n2)cc1OC	1.2	3.6
Cc1ccc(CNC(=O)C2CCN(Cc3nc(-c4ccccc4C)oc3C)CC2)cc1	1.2	1.7
CCn1c(C(=O)N2CCN(c3cccc(OC)c3)CC2)cc2sccc21	0.79	-3.5
CCCCC(CC)c1nnc(NC(=O)c2cccs2)s1 (configuration not stated)	1	1.1
CCOC(=O)c1cc(-c2ccccc2)n(CCC(=O)N2CCN(c3ccccn3)CC2)c1C	0.83	-4.9
O=C(CN1C(=O)CCSc2ccccc21)NCc1cccnc1	1	0.034

Individual results from above:
Cc1ccc(S(=O)(=O)c2nc(C)oc2N2CCOCC2)cc1 | CBX7 AlphaScr: 1.1
COc1ccc(-c2cc(C(=O)Nc3cccc(Cl)c3)c3ccccc3n2)cc1OC | CBX7 AlphaScr z-score: 3.6
CCOc1ccc(NC(=O)C2CC2(c2cccc(C)c2)c2cccc(C)c2)cc1 (configuration not stated) | CBX7 AlphaScr z-score: 1.5
O=C(Cn1cc(S(=O)(=O)c2ccccc2)c(=O)c2cc(F)ccc21)Nc1ccccc1 | CBX7 AlphaScr z-score: 0.44
CCOc1ccc(Nc2cc(C(=O)NCCCN(CC)CC)c3ccccc3n2)cc1 | CBX7 AlphaScr z-score: -2.5
CCCN1CCN(CCCNC(=O)CN2N=C(c3ccc(Cl)cc3)CCC2=O)CC1 | CBX7 AlphaScr: 1

Further entries follow:
Below each SMILES: CBX7 AlphaScr	CBX7 AlphaScr z-score
COc1ccc(OC)c(C2CC(=O)NC3=C2C(=O)CCC3)c1 (configuration not stated)
→ 1.3	1.8
CC(C)Oc1ccccc1C1CC(=O)Nc2cc3c(cc21)OCO3 (configuration not stated)
→ 0.81	-5.7
NC(=O)C1CCN(C(=O)c2ccc(C#Cc3ccccc3)cc2)CC1
→ 0.97	-0.82
COCCCNC(=O)c1nc(-c2ccc(C)cc2)oc1C
→ 1	1
COc1ccc(Cl)cc1-c1nc(-c2ccccn2)no1
→ 0.99	-0.15
CC1CCCCC1NC(=O)CC(C(=O)N1CCc2ccccc21)n1ccnc1 (configuration not stated)
→ 0.98	-0.51
COc1ccc(N2CCN(C(c3cccs3)C(C)NC(=O)c3c(F)cccc3F)CC2)cc1 (configuration not stated)
→ 0.94	-1.4
COc1ccccc1N1CCN(S(=O)(=O)c2c(C)sc3nc[nH]c(=O)c23)CC1
→ 0.9	-0.35
O=C(Nc1ccc2oc(-c3ccc(Cl)cc3Cl)nc2c1)c1cc(Br)ccc1Cl
→ 0.85	-1.9
CCN(CC)S(=O)(=O)c1ccc2c(c1)N(CC(=O)NC1CCCC1)C(=O)CO2
→ 1.1	0.89
O=C(Cc1ccccc1)NCCc1nc2ccccc2n1Cc1ccccc1F
→ 0.84	-2.4
Cc1ccc(-c2csc(NC(=O)c3ccco3)n2)cc1
→ 1.1	1.1
O=C(Nc1ccc(-c2nc3ccccc3o2)cc1)C(F)(F)F
→ 0.84	-2.6
O=C(Cn1nc(Cc2cccnc2)c2ccccc2c1=O)Nc1cccc(C(F)(F)F)c1
→ 0.97	-0.62
CC1CCN(S(=O)(=O)c2ccc(F)c(C(=O)Nc3cccc(F)c3)c2)CC1
→ 1.1	0.6
O=C(CN1CCN(Cc2ccccc2)C1=O)NCc1ccccc1
→ 1	0.012
COc1ccc2c(c1)c(=O)c(S(=O)(=O)c1ccc(C)cc1)cn2Cc1cccc(C)c1
→ 0.91	-3.3
Cn1nc(C(=O)NCc2cccnc2)c2ccccc2c1=O
→ 1	0.41
Cc1cccc(CN2CCN(CC(=O)NCCCSC3CCCCC3)C2=O)c1
→ 0.83	-3.1
Cc1nnn(C23CC4CC(CC(CC(=O)Nc5ccc(Br)cc5F)(C4)C2)C3)n1
→ 1	0.82
CCOCCCNS(=O)(=O)c1ccc2c(c1)CCN2C(=O)CCC(=O)O
→ 0.95	-1.1
CCc1nnc(NC(=O)c2cc(Cl)c(OC)c(Cl)c2)s1
→ 1	0.36
COc1cccc(C(=O)N2CC(=O)Nc3ccc(Cl)cc3C2c2ccccc2)c1OC (configuration not stated)
→ 1.1	1.3
CC(C)c1ccc(NC(=O)CC2Oc3ccccc3NC2=O)cc1 (configuration not stated)
→ 1.2	1.4
O=C(COc1ccc(Cl)cc1Cl)Nc1nc(-c2ccccc2)cs1
→ 0.97	-0.6
CCOc1ccc(NC(=O)C2CCN(c3ccc(N4CCOCC4)nn3)CC2)cc1
→ 0.98	-0.18
NS(=O)(=O)c1ccc2nc(NC(=O)c3cc(-c4ccccc4)nc4ccccc34)sc2c1
→ 0.98	-0.27
CCOc1ccc(CNc2cccc(-c3nc4ccccc4o3)c2)cc1
→ 1.1	1.5
COc1cccc(Oc2cc([N+](=O)[O-])cc3c2C(=O)Nc2ccccc2O3)c1
→ 0.76	-2.7
Cc1ccc(CN2C(=O)CCC2C(=O)NCc2ccc3c(c2)OCO3)cc1 (configuration not stated)
→ 0.99	-0.73
Clc1ccc(-c2nc(-c3ccccc3)no2)cc1Cl
→ 0.94&1.1	-0.25&1.9
Cn1cnc(S(=O)(=O)Nc2ccc(C(F)(F)F)cc2)c1
→ 0.84	-2.2
O=C(NC1CC1)C1CCC(=O)N1Cc1ccccc1Cl (configuration not stated)
→ 0.97	-0.79
CCC(C)NC(=O)c1ccc2c(c1)N(Cc1ccc(F)cc1Cl)C(=O)CS2 (configuration not stated)
→ 1	0.37
Cc1cccc(OCCCC(=O)Nc2nc(-c3ccc(Br)cc3)cs2)c1
→ 1.2	4.2
CCCOc1ccc(C(=O)Nc2ccc3oc(-c4ccc(N(C)C)cc4)nc3c2)cc1
→ 1.1	2.1
CCc1nc2c(cnn2-c2ccc(C)cc2)c(=O)n1-c1ccc(OC)c(Cl)c1
→ 0.83	-3.4
CCOC(=O)c1cnc2ccccc2c1Nc1cccc(C)c1
→ 1.1	0.57
Cc1c(Cl)cccc1NS(=O)(=O)c1ccc2[nH]cc(C(=O)NC3CCCCC3)c(=O)c2c1
→ 0.94	-1.2
C=CCn1c(COc2ccc(Cl)cc2)nc2ccccc21
→ 1.1	2.3
COc1ccc(-c2cn(-c3ccc(Cl)cc3)c(SCC(=O)Nc3ccc(F)cc3)n2)cc1OC
→ 0.45*	-4.2*
Cc1nc(SCC(=O)Nc2nnc(CC(C)C)s2)n[nH]1
→ 1.1	1.5
Cc1ccc(Nc2c(-c3ccsc3)nc3ccc(C)cn23)cc1
→ 0.96	-1.1
Cc1ccc2c(c1)NCC(C(=O)NC1CCC(C)CC1)O2 (configuration not stated)
→ 1.4	0.75
COc1ccc(CC(=O)Nc2c3c(nc4c2CCC4)CCCC3)cc1OC
→ 1.1	1.2
CCOc1cc2c(cc1OCC)C(c1cccc(O)c1)NCC2 (configuration not stated)
→ 1	0.62
N#CCCN1CCn2c3c(c4cc(C5CCCCC5)ccc42)CCCC31 (configuration not stated)
→ 0.78	-3.3
Cn1c(=O)c(=O)n(C)c2cc(S(=O)(=O)Nc3ccccc3Br)ccc21
→ 1.2	1.7
CCCCN(CC)CCCNC(=O)C1CCN(Cc2nc(-c3ccc(Cl)cc3)oc2C)CC1
→ 2.6	14
CCN(CCCNC(=O)C1CCN(S(=O)(=O)c2cnc[nH]2)CC1)Cc1ccccc1
→ 1	0.35

Record cards, from the list above. Order of values: CBX7 AlphaScr, CBX7 AlphaScr z-score
Cc1nc(SCC(=O)Nc2nnc(CC(C)C)s2)n[nH]1 is listed as 1.1, 1.5
CCCCN(CC)CCCNC(=O)C1CCN(Cc2nc(-c3ccc(Cl)cc3)oc2C)CC1 is listed as 2.6, 14
CCN(CCCNC(=O)C1CCN(S(=O)(=O)c2cnc[nH]2)CC1)Cc1ccccc1 is listed as 1, 0.35

In the list so far, these have a furan ring, fused or not:
Below each SMILES: CBX7 AlphaScr	CBX7 AlphaScr z-score
CCCCOc1ccc(C(=O)Nc2c(C(=O)c3ccc(Br)cc3)oc3ccccc23)cc1
→ 1.1	0.8
Cc1ccc(-c2csc(NC(=O)c3ccco3)n2)cc1
→ 1.1	1.1

(list continues)
Below each SMILES: CBX7 AlphaScr	CBX7 AlphaScr z-score
CCOC(=O)c1cnc2ccccc2c1NCCN1CCOCC1
→ 1	0.4
CCN1CCN(Cc2ccc(NC(=O)C3CCN(c4nn5c(=O)cc(C)nc5s4)CC3)cc2)CC1
→ 1.2	2.2
Fc1cccc(C2CC(c3cccs3)Nc3ncnn32)c1 (configuration not stated)
→ 1	1.3
CCOc1ccc2nc(N3CCCC(C(=O)NC4CCCc5ccccc54)C3)sc2c1 (configuration not stated)
→ 1.2	1.1
Clc1ccc(-c2nc(N3CCCCC3)c3ccccc3n2)cc1
→ 1.1	1.6
O=C(NCc1cccs1)C1CCCN(c2nc3ccccc3o2)C1 (configuration not stated)
→ 1	1.2
CCC1Oc2ccc(C)cc2N(CC(=O)NCCC2=CCCCC2)C1=O (configuration not stated)
→ 0.95	-0.91
Cc1cccc(C(=O)NCCc2nc3ccccc3n2Cc2ccccc2F)c1
→ 1.1	0.57
Cc1cccc(-n2ccnc2SCC(=O)Nc2nc3ccc(C)cc3s2)c1
→ 0.94	-0.057
O=C(c1ccc(Cl)cc1)N1CCN(c2ccc3nnc(-c4ccc(F)cc4)n3n2)CC1
→ 1	0.4
Cc1c(C(=O)Nc2ccc3c(c2)OCO3)sc2ncnc(N3CCN(c4ccccc4F)CC3)c12
→ 0.78	-2.9

Assay outcomes: PubChem BioAssay, several laboratories
